NS1 function inh – qHTS Assay for Inhibitors of Influenza NS1 Protein Function; S. cerevisiae slowed by influenza A NS1, growth recovery by OD600; Potency, µM (doses to about 46.1 µM), for the others: at the top dose activity, positive = more growth; 0.4% of 270,000 active; AID 2326, 2010; active means well fitted rising curve with a large enough effect; inconclusive means small, poorly fitted or top-dose-only effect; inactive means no such curve, though single readings can be large or run the other way; also: nearly all actives have a fitted effect of over 50% in size
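Read-out: OD600 growth recovery of NS1-expressing budding yeast. Cells grown overnight at 30C in -URA glucose medium, washed, resuspended and diluted 1:100 in 2% galactose assay medium, pH 6.0. Same strain lacking NS1 served as positive control.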
SARS PLP yeast – qHTS of Yeast-based Assay for SARS-CoV PLP. S. cerevisiae expressing SARS-CoV PLpro, growth rescue; control for the full effect not named in the record. Potency, µM (titrated, usually from 32.9 µM), inactives show top-dose activity, positive = growth rescue. 0.19% of 330,000 active; active means well fitted rising curve with a large enough effect; inconclusive means small, poorly fitted or top-dose-only effect; inactive means no such curve, though single readings can be large or run the other way; also: 0% is about no effect; nearly all actives have a fitted effect of over 55% in size; growth read by luminescence after 48 h
2A StopGo – High Throughput Screening for Foot and Mouth Disease Virus Antivirals | 1.2% of 410,000 active | human cells with a luciferase reporter of 2A StopGo recoding; control for the full effect not named in the record | Potency, µM (top dose mostly 57.9 µM), for the others: top-dose signal change, negative = less light | AID 1159524, 2015; active = well fitted falling curve with a large enough effect; inconclusive = small, poorly fitted or top-dose-only effect; inactive = no such curve, though single readings can be large or run the other way; tested in HEK293T cells; also: % is scaled to controls: 0 for no effect and ±100 for the full control effect; nearly all actives have a fitted effect of over 45% in size; luciferase light after 4 h
Cruzain inh Det – qHTS Assay for Promiscuous and Specific Inhibitors of Cruzain (with detergent) | 0.43% of 200,000 active | purified cruzain, Z-FR-AMC fluorescence, 0.01% Triton | Cruzipain (Trypanosoma cruzi), P25779 | Potency, µM, without a hit: max response, negative = inhibition, actives largely listed as inhibitors;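 also: plate controls were neutral wells for no effect and buffer without enzyme for full effect; nearly all actives have a fitted effect of over 40% in size; top concentration of the series not given in the record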
Target sequence (P25779 123-467 limits assumed): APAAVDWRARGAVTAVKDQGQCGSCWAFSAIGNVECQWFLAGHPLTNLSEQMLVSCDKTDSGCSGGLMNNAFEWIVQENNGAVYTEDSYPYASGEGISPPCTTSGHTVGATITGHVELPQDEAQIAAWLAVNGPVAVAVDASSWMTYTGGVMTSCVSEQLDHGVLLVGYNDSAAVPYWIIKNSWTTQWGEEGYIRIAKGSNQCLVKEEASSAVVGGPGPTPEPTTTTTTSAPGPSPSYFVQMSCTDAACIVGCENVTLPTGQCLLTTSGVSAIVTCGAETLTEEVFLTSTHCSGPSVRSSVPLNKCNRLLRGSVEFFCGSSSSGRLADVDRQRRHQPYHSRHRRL
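Steps: dispense cruzain (1.5 nM final) in acetate buffer pH 5.5 with DTT and 0.01% Triton X-100; pin-transfer compounds; incubate 15 min RT; add Z-FR-AMC (2 uM final); read fluorescence every 30 s, using the 60 s intensity change.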
MARV entry inh – qHTS for inhibitors of binding or entry into cells for Marburg Virus; Marburg virus pseudotyped entry inhibition, cell reporter; control for the full effect not named in the record; about a third of the inactives were read at about 46 µM; Potency, µM (doses to about 37.8 µM), for the others: at the top dose activity change, negative = inhibition, most hits filed as inhibitors; 1.8% of 300,000 active; AID 540276, 2011; active = well fitted inhibition curve with a large enough effect; inconclusive = small, poorly fitted or top-dose-only effect, or effect the other way; inactive = flat fitted curve, though single readings scatter; tested in HEK293 cells; about a fifth of its hits are not listed in these tables; also: % is scaled to controls: 0 for no effect and ±100 for the full control effect; luciferase read-out
Cruzain noTriton – qHTS Assay for Promiscuous and Specific Inhibitors of Cruzain (without detergent). Cruzipain (Trypanosoma cruzi), P25779. purified cruzain, Z-FR-AMC fluorescence, no detergent. Potency, µM, inactives show max response, negative = inhibition, most hits filed as inhibitors. 2.3% of 200,000 active;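 also: plate controls were enzyme without inhibitor for no effect and buffer without enzyme for full effect; nearly all actives have a fitted effect of over 40% in size; top concentration of the series not given in the record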
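Purified cruzain at 1.5 nM, pre-incubated 15 min with compound at room temperature in 100 mM sodium acetate pH 5.5, 5 mM DTT, 0.00005% Triton X-100. Reaction started with 2 uM Z-FR-AMC; AMC fluorescence increase over 60 s gives rate.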
RE007 growth inh – qHTS Assay for Inhibitors of the HIV-1 protein Vpr | AID 651644, 2012 | S. pombe RE007 Vpr strain, BacTiter-Glo ATP luminescence, 24 h; control for the full effect not named in the record | 0.21% of 360,000 active | Potency, µM (series often up to 92.2 µM), for the others: at the highest dose activity change, negative = less growth; active = well fitted falling curve with a large enough effect; inconclusive = small, poorly fitted or top-dose-only effect; inactive = no such curve, though single readings can be large or run the other way;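 also: % is scaled to controls: 0 for no effect and ±100 for the full control effect; nearly all actives have a fitted effect of over 50% in size; the assay follows cell death caused by Vpr and the record does not say whether a fall means rescue or toxicity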
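Fission yeast strain RE007, carrying one chromosomally integrated HIV-1 vpr copy, was seeded at OD 0.01 in PMG+AL medium with 23 nL pinned compound. After 24 h at 30 °C and 99% humidity, viability was read by BacTiter-Glo luminescence.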
LASV entry inh – qHTS for Inhibitors of binding or entry into cells for Lassa Virus; Lassa virus pseudotype entry inhibition, cell reporter; control for the full effect not named in the record; Potency, µM (highest dose often 37.9 µM), without a hit: at the highest dose activity change, negative = inhibition, most hits filed as inhibitors; 1.2% of 300,000 active; active means well fitted inhibition curve with a large enough effect; inconclusive means small, poorly fitted or top-dose-only effect, or effect the other way; inactive means flat fitted curve, though single readings scatter; tested in HEK293 cells; also: % is scaled to controls: 0 for no effect and ±100 for the full control effect; nearly all actives have a fitted effect of over 50% in size; luciferase read-out
* = called active by the depositor; ? = inconclusive; nt = not tested or not shown; & = joins results of further samples; [ ] = another dose, or the depositor's remark. Unless noted, calls follow the shape of the dose curve; as a rule, active = well fitted curve in the direction sought with a large enough effect; inconclusive = small, poorly fitted or top-dose-only effect, or another doubt; inactive = no such curve, though single readings can be large; an effect the other way counts as inactive or inconclusive. Potency is read from the fitted curve at half-maximal effect.

no.	SMILES	NS1 function inh	SARS PLP yeast	2A StopGo	Cruzain inh Det	MARV entry inh	Cruzain noTriton	RE007 growth inh	LASV entry inh
1	COc1ccccc1-c1cc(C(=O)Nc2sc3c(c2C#N)CCC(C)C3)c2ccccc2n1 (configuration not stated)	3%	-6%	-29%	0.8%	4%	3.2µM*	2%	-9%
2	Cc1cc(=S)[nH]c2c(C)cccc12	-47%	?	20%	2.5%	11%	0%	5%	12%
3	Cc1cccc(N2C(=O)CSC23C(=O)N(Cc2cccc(C(F)(F)F)c2)c2ccccc23)c1 (configuration not stated)	nt	nt	?	-9.0%	nt	-20%	nt	-20%[46.1 µM]
4	O=C(Nc1nccs1)c1ncc(Cl)c(Cl)c1Cl	-5%	-1%	29%	nt	-16%[46.1 µM]	nt	-21%	-15%[46.1 µM]
5	Oc1ccc(/C=N/Nc2nn3cnnc3c3ccccc23)cc1	-2%	-3%	1%	nt	nt	nt	-23%	nt
6	CSc1ccc(CN2CCN(C(=O)COc3ccc(C)cc3)CC2)cc1	nt	-8%	?	-0.5%	?	12%	-25%	?
7	CCOc1cc(C2NN=C(c3ccccc3)S2)ccc1OCc1ccccc1Cl (configuration not stated)	-23%	-5%	7%	2.0%	?	-27%	-12%	?
8	CCCCN(C(=O)c1c(CC)noc1C)c1c(N)n(CCCC)c(=O)[nH]c1=O	nt	1%	-26%	nt	18%[46.1 µM]	nt	20%	11%
9	CCOC(=O)C(=Cc1c[nH]c2ccc(S(=O)(=O)N(C)C)cc12)C(=O)OCC	0%	0%	0%	nt	?	nt	-3%	-21%
10	CCCOc1cc(C)c(S(=O)(=O)N2CCN(C)CC2)cc1C	-10%	-2%	-27%	-2.1%	-18%	6%	2%	-15%
11	Cc1ccc(-c2noc(CN(C3CCCCC3)S(=O)(=O)c3ccc(C)cc3)n2)cc1	nt	nt	7%	-3.1%	-25%[46.1 µM]	-24%	nt	-15%[46.1 µM]
12	O=C(CNC(=O)c1ccccc1F)N/N=C/c1cccs1	1%	0%	50%[activator]	nt	nt	nt	7%	nt
13	CC(=O)N1c2ccc(S(=O)(=O)N3CCC(C(=O)Nc4cccc(C)n4)CC3)cc2CC1C (configuration not stated)	-4%	7%	-19%	nt	nt	nt	0%	nt
14	O=C(NC(Cc1ccccc1)C(=O)O)/C(=C/c1ccc(Br)cc1)NC(=O)c1ccc(Br)o1 (configuration not stated)	?	2%	-3%	nt	16%[46.1 µM]	nt	-4%	?
15	COc1ccc(-c2cc(C(=O)N3CCC4(CC3)OCCO4)c3ccccc3n2)cc1	-34%	-5%	11%	nt	nt	nt	5%	nt
16	Cc1ccc(-n2nc3c(=O)n(CCCC(=O)NCc4ccccc4F)nc(C)c3c2C)cc1	3%	2%	-26%&3%	-1.6%	nt	-3%	5%	?
17	CCc1ccc(N(C(=O)CNC(=O)c2ccco2)C(C(=O)NCC2CCCO2)c2ccccc2)cc1 (configuration not stated)	1%	-1%	-22%	nt	?	nt	-7%	1%[46.1 µM]
18	N#Cc1cc([N+](=O)[O-])ccc1Oc1cccc(/C=N/NC(=O)c2cccc(Cl)c2)c1	8%	-4%	?	2.2%	?	25µM*	-3%	-18%
19	CCOC(=O)c1cc(OC(=O)c2cccc([N+](=O)[O-])c2)n(-c2ccccc2)n1	13%	11%	-18%	-2.1%	7%	4%	-5%	2%
20	Nc1c(Cl)ncnc1NCc1ccccc1	6%	5%	-25%	nt	nt	nt	10%	nt
21	COc1ccc(CNC(=O)c2ccc(Sc3ccc(Cl)cc3)c(NC(C)=O)c2)c(OC)c1	nt	nt	-18%	0.1%	nt	17%	nt	-22%[46.1 µM]
22	NC1=NC[C@H](Cc2ccccc2)N1CCCCC1CCCCC1	-8%	-5%	?	nt	nt	nt	-12%	nt
23	COc1ccc(-n2nc(C(=O)NCC(=O)NC(C)C)c3ccccc3c2=O)cc1Cl	-2%	-2%	0%	nt	nt	nt	-6%	nt
24	Cc1nn(Cc2ccc(Cl)cc2)c(C)c1NC(=O)c1cc(C(C)C)on1	14%	-9%	?	nt	?	nt	-12%	-28%[46.1 µM]
25	Cc1sc2ncnc(SCC(=O)N3CCC(c4noc5ccc(F)cc45)CC3)c2c1C	10%	0%	-10%	-3.7%	30%	7%	8%	9%

Complete entries as entered above.
O=C(CNC(=O)c1ccccc1F)N/N=C/c1cccs1 is entered as NS1 function inh = 1%; SARS PLP yeast = 0%; 2A StopGo = 50%[activator]; Cruzain inh Det = nt; MARV entry inh = nt; Cruzain noTriton = nt; RE007 growth inh = 7%; LASV entry inh = nt
O=C(Nc1nccs1)c1ncc(Cl)c(Cl)c1Cl is entered as NS1 function inh = -5%; SARS PLP yeast = -1%; 2A StopGo = 29%; Cruzain inh Det = nt; MARV entry inh = -16%[46.1 µM]; Cruzain noTriton = nt; RE007 growth inh = -21%; LASV entry inh = -15%[46.1 µM]
CCCCN(C(=O)c1c(CC)noc1C)c1c(N)n(CCCC)c(=O)[nH]c1=O is entered as NS1 function inh = nt; SARS PLP yeast = 1%; 2A StopGo = -26%; Cruzain inh Det = nt; MARV entry inh = 18%[46.1 µM]; Cruzain noTriton = nt; RE007 growth inh = 20%; LASV entry inh = 11%

Going on with the list.
no.	SMILES	NS1 function inh	SARS PLP yeast	2A StopGo	Cruzain inh Det	MARV entry inh	Cruzain noTriton	RE007 growth inh	LASV entry inh
26	CCc1ccc(NC(=O)C2CCCN2S(=O)(=O)c2cccc3nsnc23)cc1 (configuration not stated)	nt	nt	-22%	-2.5%	11%[46.1 µM]	-9%	nt	6%[46.1 µM]
27	COc1ccc(C2Nc3ccccc3C(=O)N2c2ccc(F)cc2)cc1Cn1nnc2ccccc21 (configuration not stated)	10%	-1%	21%	-6.4%	-2%	-20%	-11%	-1%
28	CC(C)CCNc1ncnc2c1nnn2Cc1ccccc1Cl	-2%	0%	-11%	3.8%	8%	-14%	4%	-4%
29	O=C(CC1Nc2ccccc2NC1=O)c1ccccc1 (configuration not stated)	-11%	0%	nt	1.6%	0%	-12%	nt	nt
30	COc1ccc(-n2c(C)nnc2SCc2nc(-c3ccc(OC)c(OC)c3)no2)cc1	nt	nt	-20%	-2.8%	0%[46.1 µM]	3%	nt	?
31	COc1ccc(S(=O)(=O)N2CCCOC2CNC(=O)C(=O)NCCc2ccco2)cc1C (configuration not stated)	-18%	-2%	4%	nt	?	nt	-4%	?
32	CN(CC1CCN(CCc2cccc(C(F)(F)F)c2)CC1)C(=O)c1ccc(F)cc1	3%	-1%	-15%	nt	?	nt	6%	2%[46.1 µM]
33	Cc1cc(C)n(-c2ccc(C(=O)OCC(=O)Nc3ccc(Cl)cc3[N+](=O)[O-])cc2)n1	0%	13%	0%	-4.7%	nt	5%	-10%	nt
34	CCOc1ccc(OCC(=O)OCC(=O)N(CC(C)C)c2c(N)n(Cc3ccccc3)c(=O)[nH]c2=O)cc1	nt	-4%	-10%	nt	?	nt	6%	22%
35	Cc1cccc(C)c1NC(=O)c1cnccn1	-2%	-4%	9%	nt	nt	nt	2%	nt
36	CCOC(=O)c1cc(S(=O)(=O)NCc2ccc(F)cc2)[nH]n1	nt	nt	5%	3.0%	nt	-1%	nt	3%[46.1 µM]
37	COCCN1C(=O)C(=O)/C(=C(/O)c2cccc(S(=O)(=O)N(C)C)c2)C12C(=O)N(C)c1ccccc12 (configuration not stated)	-16%	1%	4%	-3.5%	15%&15%	-17%	-5%	?
38	Cc1cc(C(=O)N2C(C)CCCC2C)no1 (configuration not stated)	8%	9%	-4%	nt	16%[46.1 µM]	nt	-3%	11%
39	CC(C)CCNC(=O)c1ccccc1SCC(=O)NC1CCCCCCC1	nt	4%	-20%	nt	?	nt	-12%	0%
40	CC(NCc1ccc2c(c1)OCO2)C(=O)NC1CCCCC1 (configuration not stated)	2%	1%	-6%	nt	-21%[46.1 µM]	nt	4%	-24%
41	N#Cc1cccc(CN2CCC(=O)N(CCO)CC2)c1	0%	3%	-16%	nt	nt	nt	-19%	nt
42	COc1ccc(-c2cc3c(=O)n(CC(=O)NCCCN4CCN(Cc5ccccc5)CC4)ncn3n2)cc1	-4%	-3%	-29%	nt	nt	nt	-8%	nt
43	C=CCN(C(=O)CCC(=O)Nc1cc(C)on1)C(C(=O)NC1CCCC1)c1ccc(Cl)cc1 (configuration not stated)	11%	0%	-26%	nt	-11%[46.1 µM]	nt	-2%	-11%[46.1 µM]
44	Cc1ccc(C(=O)N/C(=C\c2ccccc2)C(=O)NCCCn2ccnc2)cc1	4%	0%	23%	nt	1%[46.1 µM]	nt	-14%	-7%[46.1 µM]
45	Cc1ccc2nc(Cl)c(/C=N/NC(=O)[C@H]3C[C@@H]3c3ccccc3)cc2c1	9%	-17%	?	-8.0%	-9%	-15%	3%	?
46	Fc1ccc(NC(=S)N2CCCN(c3ccc(C(F)(F)F)cn3)CC2)c(F)c1	10%	-3%	?	nt	nt	nt	60%	nt
47	COc1cc([N+](=O)[O-])cc(/C=N\NC(=O)C2COc3ccccc3O2)c1O (configuration not stated)	-3%	3%	20%	nt	nt	nt	-18%	nt
48	C/C(=N\NC(=O)c1cccnc1)c1c(O)cc(C)oc1=O	-13%	-19%	15%	-6.7%	9%	7%	0%	-2%

Screening results deposited in PubChem BioAssay by National Center for Advancing Translational Sciences (NCATS).
